# eIF4H inh = inhibitors of RNA binding by human eIF4H | actives 0.94% (n = 290,000) | inhibition, % at 35 µM | eIF4H fluorescence polarization binding assay;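 active = 50% or more with normal probe brightness, or confirmed in later tests; about a fifth of its hits are not listed in these tables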;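 also: calls also rest on retests at 20 µM and on dose response follow-up; 0% = protein and probe with vehicle and 100% = probe without protein; strong numbers were not always called active; many hits fall short of the cut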
# PABP FP inh = blocks human PABP binding to poly(A) RNA; actives 1% (n = 290,000); fluorescence polarization; P11940; inhibition, % at 35 µM;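 active = 50% or more with normal probe brightness, or confirmed in later tests; about a fifth of its hits are not listed in these tables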;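 also: calls also rest on retests at 20 µM and on dose response follow-up; controls were probe without protein and protein plus probe with vehicle; some compounds called inactive have numbers as strong as hits; many hits fall short of the cut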
# Target sequence (P11940 whole entry, looked up): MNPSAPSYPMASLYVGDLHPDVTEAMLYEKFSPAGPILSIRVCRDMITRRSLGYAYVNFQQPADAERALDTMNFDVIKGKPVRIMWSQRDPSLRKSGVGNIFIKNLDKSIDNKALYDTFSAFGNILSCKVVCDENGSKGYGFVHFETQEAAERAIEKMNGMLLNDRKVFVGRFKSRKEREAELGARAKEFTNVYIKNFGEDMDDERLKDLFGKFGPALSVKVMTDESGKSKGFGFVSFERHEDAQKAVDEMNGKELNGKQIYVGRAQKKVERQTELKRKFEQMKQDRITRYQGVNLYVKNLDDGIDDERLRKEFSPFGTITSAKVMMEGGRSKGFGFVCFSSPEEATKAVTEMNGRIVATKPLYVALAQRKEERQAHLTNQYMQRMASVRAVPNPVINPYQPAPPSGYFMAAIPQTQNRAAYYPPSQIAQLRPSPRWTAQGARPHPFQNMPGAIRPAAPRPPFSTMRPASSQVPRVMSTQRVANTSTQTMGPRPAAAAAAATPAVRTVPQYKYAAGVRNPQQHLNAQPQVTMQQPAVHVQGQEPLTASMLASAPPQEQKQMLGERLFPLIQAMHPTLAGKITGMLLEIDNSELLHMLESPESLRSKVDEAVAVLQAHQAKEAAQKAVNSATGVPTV
# Rce1 inhib = yeast Ras-converting enzyme inhibition; Q03530; yeast membranes, quenched prenylated peptide cleavage fluorescence; calls only; actives 0.27% (n = 290,000); AID 2563;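 active = fall in fluorescence gain of 50% or more versus controls, with final raw signal at or below 3038400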;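 also: plate controls were neutral control wells for no effect and wells lacking membranes for full effect; tested at 10 µM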
# Yeast UUG start = alters start codon recognition fidelity in yeast; activity score, % at 18.7 µM; actives 0.13% (n = 350,000); S. cerevisiae UUG-firefly luciferase reporter, luminescence/redox ratio; AID 602363;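 active = replicate mean at a twofold rise or more, about +100% in these data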;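 also: firefly luciferase made from a UUG start codon reports start codon fidelity; reporter light over untreated wells divided by growth signal over untreated wells; some hits fall short of that in this replicate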
# CSC inhib = blocks cancer stem cells | actives 1.1% (n = 300,000) | cancer stem cell-like cells viability, luminescence | inhibition, % at 7.5 µM;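 active = mean at 75% or more and at least half the replicates too; tested in HMLE shEcad cells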;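 also: 0% = median of negative and 100% = median of positive control wells; the first replicate is given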
# MT1-MMP act inh = blocks activation of human MT1-MMP. P50281. HT1080 RFP-PRO-GFP cells, GFP/RFP ratio fluorescence, overnight; percent of plate control window, DMSO zero. GFP/RFP ratio change, % at 20 µM. actives 0.061% (n = 360,000). AID 651647;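 active = GFP/RFP ratio change of at least 30% with cell ATP level not reduced by more than half and red fluorescence within 50% of control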; also: strong numbers were not always called active
#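 Compound: 20 µM single dose, 1% DMSO / System: HT1080 RFP-PRO-GFP cells / Controls: DMSO and RFP-L50D-GFP cell wells / Read-out basis: GFP/RFP fluorescence ratio / Schedule: overnight compound exposure at 37 °C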
# HIV Env fusion = blocks HIV Env-driven cell-cell fusion; actives 1.1% (n = 360,000); inhibition, % at 12.3 µM; HeLa-JRFL Env/CEM21 cell fusion, luciferase; AID 651610;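 active = mean replicate inhibition score of at least 50 and every replicate individually at or above 50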;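 also: 0% = plate neutral controls and 100% = maraviroc near 300 nM; one replicate is shown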
# MT1-MMP act inh RFP = second read-out of MT1-MMP act inh, no call of its own (marks repeat the call); RFP signal change, %; measured here: RFP expression control read;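 0 = vehicle wells; hits needed this value within 50% of zero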
# * marks the source's active call; other numbers are inactive results; i = inactive; . = no result given. Rows are unselected, and some 3% of all compounds hit somewhere here.
SMILES,eIF4H inh,PABP FP inh,Rce1 inhib,Yeast UUG start,CSC inhib,MT1-MMP act inh,MT1-MMP act inh RFP,HIV Env fusion
O=C(Nc1ccc(Cl)c(Cl)c1)N(CCCN1CCOCC1)Cc1cccnc1,0,4,i,-12,-3,5,3,-2
Cc1ccc(Cl)cc1NC(=O)Nn1cnnc1,-12,5,i,-23,-3,-1,0,-120
COC(=O)c1nc[nH]c1[N+](=O)[O-],.,.,.,10,.,3,2,8
CN=C(Nc1cccnc1)c1cccc(C(F)(F)F)c1,-1,5,i,-26,1,0,2,0
O=C(OCC(=O)N(C1CCCCC1)C1CCCCC1)c1ccccc1O,2,3,i,-16,-5,-6,-5,-10
Cc1nc2ccccn2c1C(=O)N/N=C/c1ccc(CNC(=O)C(=O)Nc2ccccc2)o1,33,4,i,.,-12,6,3,-37
CCCCn1c(=N)n(CC(O)c2ccccc2)c2ccccc21 (configuration not stated),0,5,i,-7,-3,-4,-2,-29
N=c1n(CC(=O)c2ccc([N+](=O)[O-])cc2)c2ccccc2n1Cc1ccccc1,-10,-10,i,-11,-5,-25,-1,8
COCCSc1nnc(NC(=O)CCS(=O)(=O)Cc2ccccc2)s1,-9,4,i,-20,27,-5,-6,-1
CCc1cc(=O)oc2cc3oc(C)c(C)c3cc12,-12,-6,i,-11,-37,-11,0,-5
CCC1(c2ccc(F)cc2)NC(=O)N(CC(=O)Nc2ccc3c(c2)OCCO3)C1=O (configuration not stated),.,.,.,9,-12,1,-2,.
O=C(O)C1CCN(C(=O)CSc2nc3ccccc3c(=O)n2-c2ccc(Cl)cc2)CC1,4,-2,i,-5,-7,4,-1,-3
FC(F)(F)c1ccc(CSc2nccn2-c2ccccc2)cc1,-10,4,i,-3,-1,-1,1,.
COC(=O)c1ccccc1NC(=O)CSc1nnc(C(CO)NC(=O)c2ccccc2Cl)n1C (configuration not stated),-9,16,i,-15,-15,5,2,-64
S=C(NCCc1ccccc1)N1CCn2cccc2C1c1ccncc1 (configuration not stated),8,6,i,.,2,-3,-5,9

# Brought forward from above: 5 entries, then new ones.
SMILES,eIF4H inh,PABP FP inh,Rce1 inhib,Yeast UUG start,CSC inhib,MT1-MMP act inh,MT1-MMP act inh RFP,HIV Env fusion
CCC1(c2ccc(F)cc2)NC(=O)N(CC(=O)Nc2ccc3c(c2)OCCO3)C1=O (configuration not stated),.,.,.,9,-12,1,-2,.
O=C(O)C1CCN(C(=O)CSc2nc3ccccc3c(=O)n2-c2ccc(Cl)cc2)CC1,4,-2,i,-5,-7,4,-1,-3
FC(F)(F)c1ccc(CSc2nccn2-c2ccccc2)cc1,-10,4,i,-3,-1,-1,1,.
COC(=O)c1ccccc1NC(=O)CSc1nnc(C(CO)NC(=O)c2ccccc2Cl)n1C (configuration not stated),-9,16,i,-15,-15,5,2,-64
S=C(NCCc1ccccc1)N1CCn2cccc2C1c1ccncc1 (configuration not stated),8,6,i,.,2,-3,-5,9
CC(Oc1ccc(Cl)cc1)C(=O)Nc1ccccc1C(=O)N1CCOCC1 (configuration not stated),-2,16,i,-7,-13,-4,-4,11
O=C(CSc1ncccn1)N1CCN(Cc2ccccc2)CC1,-7,-12,i,-7,1,0,-3,-28
O=C(CN1CCN(Cc2ccccc2)CC1)NC(=O)NCc1ccco1,-8,-4,i,-21,-22,3,9,.
CN1CCN(C=NC2=NN(c3cccc(C(F)(F)F)c3)CC2)CC1,-15,20,i,4,.,2,5,14
C=CCNc1nc(NCCN2CCOCC2)nc(N2CCOCC2)n1,-1,-1,i,-10,-13,-4,2,-38
CC(C)c1ccc(NC(=O)NN2CCOCC2)cc1,-8,3,.,.,-1,0,-1,-56
O=C(Nc1ccccc1)C1CCCN1C(=O)NCc1ccccc1 (configuration not stated),-7,-4,i,.,-3,-1,3,-46
CCc1ccc2[nH]c(=O)c(CN(Cc3ccc4c(c3)OCO4)Cc3nnnn3C3CCCC3)cc2c1,2,-1,i,-23,1,-10,-6,.
Cc1nn(CC(=O)Nc2ccncc2)c(C)c1[N+](=O)[O-],-9,2,i,-19,2,-1,2,-68
CCN(C(=O)COC(=O)c1cncc(Br)c1)C1CCS(=O)(=O)C1 (configuration not stated),10,-4,i,.,-12,-4,-3,5
Cc1ccc(C)c(N2CCN(S(=O)(=O)c3cc4c(cc3C)NC(=O)CO4)CC2)c1,-2,-1,i,-10,19,0,1,-13
CCCN(CC1CCCO1)C(=O)CCc1nnc(-c2cc(C)on2)o1 (configuration not stated),-7,-5,i,.,-6,3,5,-2
O=C(O)CCN1/C(=C/C=Nc2ccccc2)Oc2ccccc21,16,31,i,5,-4,-3,5,.
COc1ccc(C2COC(=O)C2=N)c(NC(=O)c2ccc(Cl)cc2)c1 (configuration not stated),3,24,i,-4,10,1,5,-31
O=C(Nc1ccc(F)cc1)c1nsc(Cl)c1Cl,-5,-1,i,-18,-13,-3,-1,.

# Next section (three carried over from the part before).
SMILES,eIF4H inh,PABP FP inh,Rce1 inhib,Yeast UUG start,CSC inhib,MT1-MMP act inh,MT1-MMP act inh RFP,HIV Env fusion
O=C(O)CCN1/C(=C/C=Nc2ccccc2)Oc2ccccc21,16,31,i,5,-4,-3,5,.
COc1ccc(C2COC(=O)C2=N)c(NC(=O)c2ccc(Cl)cc2)c1 (configuration not stated),3,24,i,-4,10,1,5,-31
O=C(Nc1ccc(F)cc1)c1nsc(Cl)c1Cl,-5,-1,i,-18,-13,-3,-1,.
COc1cccc(CNC(=O)CCC2CCCN(C(=O)c3ccc(OC)o3)C2)c1 (configuration not stated),3,6,i,-17,-12,3,2,-9
COC(=O)c1ccc(NC(=O)CSc2nnnn2C2CCCCC2)cc1,-1,7,i,-20,21,-1,-1,-33
COc1ccc(NC(=O)c2ccc(NC(=O)CSc3nc(N)cc(=O)[nH]3)cc2)cc1,.,.,.,-9,0,-2,2,5
CCc1ccccc1OCC(=O)Nc1cc(S(=O)(=O)N(CC)CC)ccc1N1CCOCC1,.,.,.,-14,25,-6,-9,8
O=c1cc(CSc2nc3ccccc3c(=O)[nH]2)c2ccc(O)cc2o1,30,17,i,-20,.,-16,1,23
O=C(O)c1c(C(=O)O)c(-c2ccc(Br)cc2)n2c1CSC2,0,11,i,-8,-18,-7,-1,-11
Cc1cc(SCC(=O)Nc2c(C)n(C)n(-c3ccccc3)c2=O)nc2ccccc12,-16,0,i,-4,6,-3,0,8
CCOC(=O)C1(CCc2ccccc2)CCN(C(=O)CN2C(=O)CSC2=O)CC1,12,7,i,4,4,2,-4,-9
O=c1c2cn(Cc3ccc(F)cc3)c3ccc(F)cc3c-2nn1Cc1ccc(F)cc1,7,0,i,-10,.,-1,1,-3
Cc1ccccc1Oc1nc2c(C)cccn2c(=O)c1/C=C(\C#N)C(=O)Nc1c(C)n(C)n(-c2ccccc2)c1=O,-2,15,i,.,7,-10,-9,20
CCCC(=O)Nc1ccc(Oc2ccc(NC(=O)CCC)cc2)cc1,5,1,i,-3,0,0,3,-10
O=C(Nc1ccc(C(=O)N2CCCC2)cc1)C1CCCC1,.,.,.,0,.,4,5,-10
CCCNC(=O)c1cc(C2CCCN(S(=O)(=O)c3cccs3)C2)on1 (configuration not stated),.,.,.,5,.,4,-9,-17
CC(NC(=O)C1CCC1)c1ccc(Br)cc1 (configuration not stated),-12,-4,i,.,-9,6,3,-12
Cc1ccccc1OCC(=O)NCC(=O)N/N=C/c1ccc(Br)o1,1,7,i,-23,-1,0,2,-4
O=C(CC1CC1)Nc1ccc2c(c1)[C@@H]1C[C@H](CC(=O)NC3CCCC3)O[C@@H](CO)[C@@H]1O2,.,.,.,-13,.,1,4,21
CCOC(=O)C1CCN(C(=O)CNC(=O)c2nn(-c3ccc(OC)cc3)c(=O)c3ccccc23)CC1,4,0,i,6,12,0,-2,-10
Cc1cccn2c(=O)c3cc(C(=O)NC4CCCCCC4)sc3nc12,2,5,i,0,3,1,0,-10
CCCC(=O)Nc1ccc2c(c1)nc(CN1CCCCC1)n2C,-4,-2,i,-17,-16,3,3,14
COc1ccc(CCN2C(=O)CS/C2=N\NC(=O)c2cccs2)cc1OC,-2,6,i,.,-15,2,1,13
CCSc1nnc(NC(=O)C2CCCCC2C(=O)OCC(F)(F)C(F)F)s1 (configuration not stated),5,0,i,-13,-9,1,2,-90
Cc1ccsc1C(=O)Nc1n[nH]c(C(F)(F)F)n1,-5,4,i,-24,9,0,-2,20
COc1cc(CN2CCCC(N3CCc4ccccc4C3)C2)c(Cl)cc1O (configuration not stated),-3,-5,i,-16,-4,-5,-1,4
COc1ccccc1CNC(=O)C1CCN(S(=O)(=O)c2ccc(-n3cnnn3)cc2)CC1,-1,0,i,-14,.,-2,0,-2
CC(=O)N1N=C(c2ccccc2O)CC1c1cccs1 (configuration not stated),-9,-5,i,-11,-9,7,8,-6
O=C(CN(Cc1ccccc1)S(=O)(=O)c1ccc2c(c1)OCCO2)Nc1ccc2c(c1)OCCO2,-10,5,.,-5,-1,2,-5,.
CCSc1nc2ccccc2n1C(=O)c1ccc(S(=O)(=O)N2CCCCCC2)cc1,-1,3,i,.,8,-1,0,2
CC(C)[C@H](NC(=O)c1ccccc1F)C(=O)NNC(=O)c1cccs1,.,.,.,-15,-11,0,-2,.
COc1cccc(CNC(=O)C2CCN(c3nnc(N4CCCC4=O)s3)CC2)c1,-10,-5,i,-16,-13,-1,1,24
C=CC(=O)NC1CC2CCC1(C)C2(C)C (configuration not stated),-11,-8,i,-14,-14,1,5,4
CCN(C(=O)COC(=O)c1cccnc1SC)c1c(N)n(Cc2ccccc2)c(=O)[nH]c1=O,.,.,.,11,-14,-4,0,3
CCOC(=O)N=S(N)(=O)c1ccccc1 (configuration not stated),-4,-8,i,1,.,-3,-2,.
O=C(NC1CC1)C1CCN(S(=O)(=O)c2ccc(Cl)cc2)CC1,3,-4,i,-7,0,2,7,14
O=c1[nH]c2c(c(=O)[nH]1)OCN(Cc1ccccc1)C2,.,.,.,-25,.,1,4,-1
CC1Sc2ccc(S(=O)(=O)CCC(=O)N3CCCCC3)cc2NC1=O (configuration not stated),-19,9,i,0,-2,1,0,-3
CCN(CC(=O)NCc1ccc(Cl)cc1)CC(=O)NC1(C#N)CCCC1,-11,-2,.,-12,-3,0,-1,12
CCOC(=O)c1nc(Nc2ccccc2C)c2ccccc2n1,6,0,i,.,2,0,0,-15
Cn1c(NN)nc2sc3c(c2c1=O)CC(C)(C)OC3,0,-6,i,-25,-10,8,1,-1
CC(C)Nc1ncnc2c1ncn2[C@H]1CN(C2CCCC2)C[C@@H](CO)O1,.,.,.,-18,.,3,-3,15
COc1cccc(-n2nnnc2SCC(=O)Nc2ccccc2OC)c1,0,-2,i,-17,1,-1,-1,-5
O=C(CSc1nncs1)Nc1cccc2ccccc12,.,.,.,-3,.,0,3,4
COc1ccc(-n2c(=S)[nH]c3cc(C(=O)Nc4cccc(C)c4)ccc3c2=O)cc1,1,-10,i,.,-9,-1,0,.
Cc1cccc(NC(=O)COc2coc(CN3CCN(Cc4ccccc4)CC3)cc2=O)c1,.,.,i,-10,3,1,-13,18
O=C(Nc1ccc(OC(F)(F)F)cc1)NC1CCC(Oc2ccc(C(=O)O)cc2)CC1 (configuration not stated),.,.,.,-16,-10,4,-2,16
c1csc(-c2nn3c(C4COc5ccccc5O4)nnc3s2)c1 (configuration not stated),-2,-6,i,-23,13,7,-1,.
CCc1nc(N2CCCCC2C)c2oc3ccccc3c2n1 (configuration not stated),-1,0,i,0,102*,-10,-13,75*
CCCC(=O)NC(Nc1ccc(S(=O)(=O)Nc2ncccn2)cc1)(C(=O)OCC)C(F)(F)F (configuration not stated),-3,10,i,-6,-15,-2,3,11
FC(F)(F)C(F)(F)c1nnc2ccc(-n3ccnc3)nn12,-3,-7,i,-15,8,-7,-1,4
COc1ccc(C(=O)c2sc3nc(C)cc(-c4cccs4)c3c2N)cc1,21,12,i,.,.,-95,-6,21
COc1cccc(NC(=O)CCS(=O)(=O)c2cc3c(cc2Cl)NC(=O)CO3)c1,-6,-3,i,.,-14,-2,1,4

# Bioassay records from PubChem.
